Assay outcomes deposited in PubChem BioAssay by several laboratories.
Calb FLC: C. albicans growth inhibition with fluconazole, primary screen, CaCi-2 strain, Alamar Blue fluorescence. C. albicans CaCi-2 (fluconazole-resistant clinical isolate) + fluconazole, 48 h. growth inhibition, % (no concentration beside the values). actives 0.57% (n = 300,000). AID 1979, 2009;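 active = most replicates above 75%; inconclusive = exactly half above 75%; inactive = most below 75%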;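 note: all wells also contain fluconazole at 8 µg/ml as a sub-toxic cotreatment; 0% = median of DMSO wells and 100% = median of geldanamycin control wells; wells of about 8 µL received 7.5 nL stock; the first replicate is given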
Bfl-1 A1 inh: caspase 3/7 activation in MEF A1-2A-BIM cells, primary screen, A1 inhibitor project, cell-based, luminescence, HTS; actives 0.066% (n = 330,000); caspase activation, % (concentration not given with the values); AID 2462, 2010; Caspase-Glo 3/7 luminescence, 3 h; percent of clofoctol response, vehicle zero;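 active = over half of replicate activation scores above 10%, or exactly half above 10 with the replicate mean above 10; inconclusive = replicate mean below 10 yet half the replicates above 10; inactive = over half of replicates below 10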;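 note: wells of about 30 µL received 50 nL stock; many hits fall short of the cut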
rRNA inh HTS: reduced GFP signal of wild-type E. coli, primary screen, bacterial rRNA inhibitor project, GFP/RFP fluorescence, OD600, single point. E. coli WT GFP vs humanized-ribosome RFP mutants, 24 h; active compounds read low; DMSO median 0, no signal -100. GFP signal change (wild-type ribosome), % (test concentration not listed). actives 1.6% (n = 350,000);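 active = significant combined selectivity score with lowered wild-type GFP, culture density cut under 30%, mutant RFP and density less affected; inactive = any of these conditions unmet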; note: one replicate is shown; some compounds called inactive have numbers as strong as hits
RanGTP-Impb inh: inhibitors of RanGTP-importin-beta interaction, primary screen, biochemical, FRET, CFP-Ran, YFP-importin-beta, homogeneous. Ran GTPase (GTP-bound) - importin-beta complex. cell-free CFP-Ran/YFP-importin-beta FRET ratio. inhibition, % (test concentration not listed). actives 1.1% (n = 300,000);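 active = most replicates above 15%; inconclusive = exactly half above 15%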;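 note: 0% = DMSO wells and 100% = Ran loaded with GDP instead of GTP; wells of about 40 µL received 100 nL stock; the first replicate is given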
Beta cell apopt: inhibitors of cytokine-induced beta cell apoptosis, primary screen, luminescence; AID 435005, 2010; actives 0.8% (n = 300,000); protection from apoptosis, % (no concentration beside the values); INS-1E cytokine-induced death, ATP luminescence, 48 h; percent of positive-control rescue, neutral wells zero;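 active = all replicates at 75% or more, or half of them and the mean; inconclusive = half reach 75% but not the mean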;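 note: 0% = cytokine-treated negative control wells and 100% = positive control rescue; higher means more ATP so stronger rescue from cytokine killing; wells of about 40 µL received 100 nL stock; the first replicate is given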
AF4-AF9 inh: inhibitors of AF4 peptide binding to AF9, primary screen, biochemical, AlphaScreen, biotin-AF4 peptide, FLAG-AF9, single point. Protein AF-9 (Homo sapiens), P42568. inhibition, % at 10 µM. actives 0.47% (n = 350,000);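 active = every replicate reaching a set inhibition limit, whatever the replicate mean, cut at about 25% in these data; inconclusive = mean inhibition reaches that limit but some replicates miss it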;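 note: 0% = plate neutral control median and 100% = total signal loss; the record names both 10 and 1 µM as test concentration; the first replicate is given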
Target sequence (P42568 whole entry, looked up): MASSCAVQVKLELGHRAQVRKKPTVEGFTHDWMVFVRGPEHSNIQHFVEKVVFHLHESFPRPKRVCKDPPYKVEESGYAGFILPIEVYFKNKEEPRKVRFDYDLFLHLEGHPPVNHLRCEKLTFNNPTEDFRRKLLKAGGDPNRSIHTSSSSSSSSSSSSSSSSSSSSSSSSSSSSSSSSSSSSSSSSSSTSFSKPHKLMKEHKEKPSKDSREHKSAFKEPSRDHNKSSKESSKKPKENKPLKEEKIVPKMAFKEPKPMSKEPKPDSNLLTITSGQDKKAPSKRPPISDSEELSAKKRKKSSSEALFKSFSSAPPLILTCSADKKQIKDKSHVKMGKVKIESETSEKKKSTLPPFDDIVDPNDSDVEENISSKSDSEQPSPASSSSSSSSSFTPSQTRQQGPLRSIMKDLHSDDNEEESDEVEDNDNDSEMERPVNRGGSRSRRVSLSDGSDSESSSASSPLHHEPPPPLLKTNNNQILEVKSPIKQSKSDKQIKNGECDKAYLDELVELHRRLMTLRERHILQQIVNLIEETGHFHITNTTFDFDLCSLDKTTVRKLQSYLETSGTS
T cruzi repl: inhibitors of intracellular T. cruzi growth, primary screen, luminescence, NIH3T3 host cells; T. cruzi beta-gal in NIH3T3, 90 h; inhibition, % (concentration not given with the values); actives 1.4% (n = 300,000);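 active = mean inhibition across valid replicates above about 55%, limit read from the data; inconclusive = mean below that limit but half or more replicates reach it; inactive = mean below it, under half of replicates reach it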;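 note: signal also drops with host cell toxicity which is not excluded here; 0% = plate median of DMSO wells and 100% = zero luminescence signal; higher percent means less beta-gal luminescence so fewer parasites; stock transfer was 50 nL into about 50 µL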
Vif A3G: inhibitors of Vif binding to APOBEC3G peptide, primary screen, biochemical, TR-FRET, GST-Vif 1-94, biotin-A3G peptide, dose response retest (AID 1117319). TR-FRET GST-Vif / biotin-A3G peptide binding; higher % means a stronger effect; test concentration not given here; strong numbers were not always called active. inhibition, %; hits with a dose series show IC50 in µM. Virion infectivity factor (Human immunodeficiency virus type 1 group M subtype B (isolate …. actives 0.57% (n = 260,000);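 active = above the screen mean plus three standard deviations and confirmed in dose response; inconclusive = results disagree or hit not tested in dose response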;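 note: Vif residues 1-94 fused to GST binding biotinylated APOBEC3G peptide 110-148; 0% = full assay without inhibitor and 100% = GST in place of GST-Vif; retest series ran down from 100 µM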
rRNA inh HTS OD600: further read-out of rRNA inh HTS, marked with its call; OD600 change, %; measured here: OD600 growth;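 optical density of the mix in the first replicate; 0 = DMSO median and -100 = no signal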
rRNA inh HTS RFP: also measured in rRNA inh HTS; calls as there; RFP signal change, %; measured here: RFP humanized mutant strains;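 first replicate; 0 = DMSO median and -100 = no signal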
Starred values were filed as active, the others as inactive; ? = inconclusive; . = no result given; & = joins results of further samples. Not all compounds are listed; count on the stated rates, not on these rows.

Second line of a record: RanGTP-Impb inh	Beta cell apopt	AF4-AF9 inh	Vif A3G	Bfl-1 A1 inh	rRNA inh HTS OD600	Calb FLC	T cruzi repl	rRNA inh HTS	rRNA inh HTS RFP
CCOC(=O)c1cc2ccc(OC)c(OC)c2c(=O)s1
  4.7	2	.	69%	-0.8	.	-6	-5	.	.
Cc1ccc(-n2c(SCC(=O)N3c4ccccc4Sc4ccccc43)nnc2-c2ccncc2)cc1
  0.0	.	.	.	-1.0	.	-22	63*	.	.
O=C(Nc1ccon1)c1ccc(S(=O)(=O)N2CCOCC2)cc1
  -0.8	1	-1.0	.	1.5	-1	-8	.	0	-1.8
Cc1cc(C)nc(SCc2ccc(C(=O)N/N=C/c3ccncc3)cc2)n1
  -0.7	-2	-1.2	-3%	0.1	-17	8	10	-20	0.2
COc1ccccc1C(=O)NCC(c1cccs1)N1CCc2ccccc21 (centres undefined)
  5.0	5	6.3	0%	0.4	-17	0	22	-4	9.8
O=C(CN1CCN(C(=O)CNC(=O)c2ccc(N3CCCC3=O)cc2)CC1)Nc1ccccc1Cl
  .	2	-1.8	0%	-0.7	.	.	.	.	.
O=C(COc1ccc(Cl)cc1Br)Nc1ccccc1N1CCCC1
  0.0	.	-4.8	-3%	-0.4	-7	-7	38	-6	0.4
O=C(COc1ccc(Cl)cc1)NCc1nnc(SCC(=O)c2ccccc2)o1
  ?	-3	.	7%	0.3	.	7	3	.	.
COC(=O)C1=C(C(=O)OC)[C@@H]2Nc3ccccc3[C@@]23C[C@@H](C(=O)OC)N(C(=O)c2ccco2)C3=N1
  5.7	-22	-17	.	0.4	-1	-6	-8	6	0.7
Cc1ccc(C(=O)O)cc1NC(=O)C1CCN(S(=O)(=O)c2ccc3c(c2)OCCO3)CC1
  .	-5	-7.9	7%	-0.4	8	.	.	7	0.3
CCOC(=O)C1=C(C)NC(=O)NC1c1ccc(N(CC)CC)cc1 (centres undefined)
  -1.7	-4	-0.8	5%	-0.2	3	-7	-17	2	0.4
Cc1nc2nc3c(cn2n1)C(=O)CCC3
  -27	-3	.	7%	0.8	.	-9	-19	.	.
COc1cccc2cc(C(C)N(CCCN3CCOCC3)C(=S)Nc3c(C)cccc3C)oc12 (centres undefined)
  -4.5	-1	5.7	?	0.1	-10	5	-3	-1	3.8
CCOC(=O)CC(=O)CSc1nc2c(sc(=S)n2-c2ccccc2)c(=O)[nH]1
  -0.5	-2	.	20%	0.0	.	16	1	.	.
O=C(NCc1cccs1)Nc1ccc2c(c1)OCO2
  3.2	-4	.	1%	-1.6	.	-11	26	.	.
CCSc1cc(C)nc2c(-c3ccccc3)c(C)nn12
  0.0	-1	.	5%	-0.5	.	-4	26	.	.
O=C(Nc1cc(Cl)ccc1N1CCOCC1)c1ccc(N2CCCCC2)c([N+](=O)[O-])c1
  0.5	-7	-3.4	.	0.1	12	2	22	16	6.3
C=CCNc1sc(C(=O)c2ccccc2)c(N)c1-c1nc2ccccc2s1
  3.1	11	.	?	-2.1	.	44	7	.	.
CCCOC(=O)/C(C(N)=NCc1ccccc1)=C(\O)OCCC
  -0.4	109*	.	45%	0.1	.	0	34	.	.
CC(NC(=O)C12CC3CC(CC(C3)C1)C2)C(=O)NN=Cc1ccc([N+](=O)[O-])o1 (centres undefined)
  .	-4	-1.1	3%	0.9	-24	.	.	-31	-15
Cc1nn(C(C)C(=O)Nc2ccc3c(c2)OCO3)c(C)c1[N+](=O)[O-] (centres undefined)
  5.1	-2	0.1	-6%	0.2	5	-7	-5	6	7.1
CCCN(CC1CC1)C(=O)Nc1ccccc1C
  4.5	-4	.	-2%	0.3	.	-4	-9	.	.
O=C(N/N=C/c1cccc([N+](=O)[O-])c1)C1CC(=O)N(c2ccc(Cl)cc2)C1 (centres undefined)
  0.5	2	.	3%	1.6	.	7	7	.	.
COCCNCC(=O)Nc1ccc(OC(F)(F)F)cc1
  -1.8	-11	-16	-1%	0.2	7	9	-11	3	-0.6
CCn1c(=O)cc(OCC(=O)NC(C)c2ccc3c(c2)OCCO3)c2ccccc21 (centres undefined)
  6.4	4	.	0%	-0.8	.	?	8	.	.
Cc1cc(C)n(CCC(=O)N2CCCC(Nc3ccc(F)cc3)C2)n1 (centres undefined)
  8.0	1	-13	-1%	0.5	-12	5	-4	5	2.2
CC1=C(C(=O)OCC2CCCCC2)C(c2ccc(O)cc2)NC(=O)N1 (centres undefined)
  4.1	0	0.4	-2%	-0.2	12	10	10	4	4.9
O=C(NCCN1CCOCC1)C12CC3CC(C1)CC(c1ccccc1)(C3)C2
  -0.4	.	0.6	2%	-0.8	-12	4	18	-2	-1.7
COC(=O)COc1cccc(NS(=O)(=O)c2ccc(NC(C)=O)cc2)c1
  6.1	-3	3.8	4%	-7.8	2	18	7	3	-3.6
CC12CCC(C(N)=O)(c3nc4ccccc4nc31)C2(C)C (centres undefined)
  0.8	-4	.	?	0.2	.	-10	-13	.	.
Cc1ccc(N(C(=O)Cn2nnc(-c3ccc(C)o3)n2)C(C(=O)NC2CCCC2)c2ccncc2)cc1 (centres undefined)
  -0.3	1	-6.5	.	-0.4	3	-9	0	3	-1.3
O=C(O)CCCNS(=O)(=O)c1cccc2nsnc12
  -0.1	4	.	8%	0.9	.	-1	-6	.	.
O=C(CCc1ccccc1)NC(NC(=S)Nc1ccc(Br)cc1)C(Cl)(Cl)Cl (centres undefined)
  0.2	17	3.8	7%	0.9	-10	-11	27	-12	6.4
CCOC(=O)C1CCN(C(=O)CNC(=O)OC(C)(C)C)CC1
  8.1	1	.	28%	0.1	.	0	3	.	.
COc1ccc(NC(=O)Nc2ccccc2F)cc1Cl
  -0.8	-3	-1.9	9%	-6.2	.	9	21	.	.
Cc1ccc(S(=O)(=O)NCC(=O)NCC(=O)N2CCC(C)CC2)cc1
  -1.1	1	0.8	-2%	0.3	6	2	-8	4	-1.3
CN1CCN(C(=O)c2ccc3c(Cl)c4c(nc3c2)CCCC4)CC1
  6.6	-4	1.0	.	-1.2	-18	3	13	-16	-0.1
C#CCOCCOCCOCCNc1nc(N2CCN(C(=O)[C@H]([C@@H](C)O)n3cc(CCCCN)nn3)CC2)nc(N2CCN(C(=O)[C@H](C)n3cc(CCCN=C(N)N)nn3)CC2)n1
  5.8	-5	.	-9%	1.2	12	7	-21	19	-0.8
COc1ccc(NC(=O)CSc2ccc3nnc(CCNC(=O)c4ccccc4)n3n2)cc1OC
  2.0	-1	-1.4	.	-0.1	-2	6	-13	1	-1.5
Cc1ccnc(N2CCC(C(=O)NCc3ccccc3F)CC2)n1
  -2.4	.	-2.6	-1%	-0.2	15	-16	13	17	2.7
CSc1nc2ccc(NC(=O)C3CC(=O)N(Cc4ccccc4)C3)cc2s1 (centres undefined)
  0.8	-2	.	2%	-0.1	.	3	15	.	.
CNS(=O)(=O)c1cccc(C(=O)OCC(=O)N2c3ccccc3CC2C)c1 (centres undefined)
  0.4	3	.	4%	-1.6	.	2	7	.	.
COC(=O)c1cc2occc2n1CC(=O)N(C)C1CCCCC1
  -7.3	0	-12	15%	0.9	-1	-14	20	12	0.8
Cc1ccc(CS(=O)(=O)CCC(=O)NCCN2CCCC2)cc1
  0.8	-2	12	0%	0.0	8	6	-14	5	1.2
O=C1C=C(c2ccc(Oc3ccccc3)cc2)C[C@@H](c2ccc3c(c2)OCO3)C1
  .	1	-1.3	.	-0.7	8	.	.	7	-9.8
O=C(c1ccc(F)cc1)N1CCN(S(=O)(=O)c2ccc(Br)cc2)CC1
  4.7	-6	-1.2	.	0.2	7	-7	4	3	-1.0
CC(=O)N1CC[n+]2c(-c3ccc(Cl)cc3)csc21
  -1.2	-37	-6.8	19%	-0.8	1	-15	41	-1	1.1
Cc1ccc(C(=O)NC(NCc2ccco2)C(Cl)(Cl)Cl)cc1 (centres undefined)
  5.9	5	.	.	-0.6	.	8	-22	.	.
Cc1cc(C2=CC(C)(c3cc(C)oc3C)Nc3nc(C(F)(F)F)nn32)c(C)o1 (centres undefined)
  0.8	0	.	4%	-0.1	.	-3	14	.	.
S=C(Nc1ccc(Cl)cc1Cl)Nn1cnnc1
  2.7	-5	-2.4	-5%	-0.2	4	-39	0	2	-1.4
NC(=O)c1ccccc1N=Cc1cccnc1
  -1.8	-9	-0.3	.	0.9	3	-12	-17	3	-0.7
O=C(COC(=O)Cc1c(Cl)cccc1Cl)NCc1ccco1
  .	-5	1.3	.	-0.3	-16	.	.	-1	2.9
O=C(NC1=NCCS1)c1cc(-c2cccnc2)nc2ccccc12
  15*	-28	-0.8	6%	0.7	16	21	-2	-13	2.0
Cn1c(=O)c2sc3c(c2n(CC(=O)Nc2ccccc2)c1=O)COC(C)(C)C3
  1.4	2	0.9	.	0.3	10	7	10	-2	-4.4
COc1ccc(C(=O)Nc2ccc(S(=O)(=O)NC(C)=O)cc2)cc1[N+](=O)[O-]
  -0.3	-4	-0.5	1%	?	2	1	-2	-2	-3.7
CC(=O)c1ccc(N2CCN(C(=O)c3cc4c(s3)CCCC4)CC2)cc1
  0.1	-1	-4.9	18%	-0.9	-30	2	18	-22	34
CCOc1ccccc1-n1c(SCC(=O)Nc2ccccc2C(=O)O)nc2ccccc2c1=O
  -2.9	-6	-3.4	.	0.4	-7	-5	-5	-4	-0.5
O=C(NNC(=S)Nc1ccc(Cl)cc1)c1cccs1
  0.5	5	0.6	.	0.3	-76	20	-11	-58	-22
COc1cccc(/C=C(\CC(=O)O)c2nc3ccccc3s2)c1
  -1.9	0	-1.1	-14%	-0.5	-28	56	-7	-24	-2.9
COc1cc(OC)cc(-c2cc3nc4c(c(N5CCN(c6ncccn6)CC5)n3n2)CCCC4)c1
  5.8	16	-26	3%&-29%	-0.3	-1	-8	60*	10	0.4
